Sa helicase inh: S. aureus DNA helicase inhibition. inhibition, %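 (tested at about 80 µM)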. hit rate 0.05% among 120,000. purified S. aureus helicase, fluorescence unwinding assay; about half of the hits fall short of the stated cut;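 active means both duplicates at 50% or more, or one of them with a favoured structure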;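 further: 0% = mean of negative control wells and 100% = mean of positive control wells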
MgrA DNA FP: modulators of Staphylococcus aureus MgrA DNA binding. AID 602314. inhibition, %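 (about 10 µg/mL by stock and volumes)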. fluorescence polarization. hit rate 0.13% among 84,000;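 active means above 50% in either of two replicates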;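 further: 0% = protein plus DNA without compound and 100% = DNA alone without protein; higher means less MgrA bound to DNA so lower polarization; one replicate is shown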
An asterisk follows results filed as active; nt = no result given; & = joins results of further samples. Not all compounds are listed; the hit share may differ from the screen's.

SMILES	Sa helicase inh	MgrA DNA FP
C[C@]12CC[C@H](O)C[C@H]1CC[C@@H]1[C@@H]2C[C@@H](O)[C@]2(C)[C@@H](C3=CC(=O)OC3)CC[C@]12O	nt	16
O=C(COc1ccccc1)N1CCN(Cc2ccc(Br)cc2)CC1	-3	1.0
CC(=O)O[C@@H]1CC(O[C@@H]2C(C)OC(O[C@@H]3C(C)OC(OC4CC[C@@]5(C)[C@H](CC[C@]6(C)[C@]5(C)C[C@@H](O)[C@]5(C)[C@@H](C7=CC(=O)OC7)CC[C@@]56O)C4)C[C@H]3O)C[C@H]2O)OC(C)[C@H]1OC1OC(CO)[C@@H](O)[C@@H](O)[C@@H]1O (some centres not stated)	nt	4.1
c1ccc(C23CC4CN(CCN(C4)C2)C3)cc1	4	-0.3
COCCOC(=O)C1=C(N)OC(C)=C(C(=O)OCc2ccccc2)C12C(=O)Nc1ccccc12 (configuration not stated)	nt	-0.1
COC(=O)C1=C(C)OC(N)=C(C#N)C12C(=O)Nc1ccc([N+](=O)[O-])cc12 (configuration not stated)	nt	0.4
Cc1cc(OC(=O)N(C)C)nc(SCc2c(F)cccc2Cl)n1	4	nt
CC12CCC3C(CC=C4CC(O)CCC43C)C1C/C(=C\c1ccc(C(F)(F)F)cc1)C2=O (configuration not stated)	3	-1.7
CSc1ncccc1C1=N/C(=C\c2ccc(C)cc2)C(=O)O1	nt	0.6
O=C1CC(=O)N(Cc2ccc(F)cc2)C(=O)N1	12	-0.6
CC(=O)N1CN2CN(C1)CN(C(C)=O)C2	7	nt
CCN(CC)P1(=O)OC(C)(C)CC1(C)O (configuration not stated)	7	1.8
Clc1ccc(-c2ccc(Cl)cc2)cc1	nt	-3.6
CN(C)[C@@H]1C(=O)C(C(N)=O)=C(O)[C@@]2(O)C(=O)C3=C(O)c4c(O)ccc(Cl)c4[C@@](C)(O)[C@H]3C[C@@H]12	nt	-1.9&-1.6
CC(C)(C)c1ccc(OCCOc2ccccc2C=C2C(=O)NC(=O)NC2=O)cc1	nt	23
CNC(C)[C@H](O)c1ccccc1 (some centres not stated)	nt	3.4
COc1cccc(CNCCc2ccccc2)c1OC	12	-2.0
O=c1c2ccccc2nc(CN2CCCCC2)n1-c1ccccc1	-5	1.5
CCc1ccccc1NC(=O)N1Cc2ccccc2-n2cccc2C12CCN(C(C)=O)CC2	8	nt
COc1ccc(Cc2nc3ccccc3n2Cc2ccccc2)cc1	4	0.0
CN1CCN(C(=O)COc2cccc3ccccc23)CC1	-5	0.1
CC[C@@]1(O)C[C@H](O[C@H]2C[C@H](N(C)C)[C@H](O)[C@H](C)O2)c2c(cc3c(c2O)C(=O)c2c(O)cccc2C3=O)[C@H]1C(=O)OC	nt	17
N#Cc1cnn(-c2ccc(Cl)cc2)c1N	nt	-4.0
O=[N+]([O-])c1cc([As](=O)(O)O)ccc1O	nt	3.6&1.5
CC12CCC3C4CCCC=C4CCC3C1CCC2=O (configuration not stated)	nt	-2.1
Cc1ccc(N2Cc3ccccc3C2=N)cc1Cl	-7	-0.8
Cc1ccc2occ(CN3CC=C(c4ccc(F)cc4)CC3)c(=O)c2c1	6	-1.8
CCN(CC)C(=O)c1ccc(NC(=S)NC2CC2)cc1	-9	nt
Cc1cc(OC(=O)N(C)C)nc2c1c(C)nn2C	nt	-1.3
COc1ccc(C(=O)C(C)(C)NO)cc1	19	nt

Part of the list above in order of count of non-hydrogen atoms, highest first.
SMILES	Sa helicase inh	MgrA DNA FP
CC[C@@]1(O)C[C@H](O[C@H]2C[C@H](N(C)C)[C@H](O)[C@H](C)O2)c2c(cc3c(c2O)C(=O)c2c(O)cccc2C3=O)[C@H]1C(=O)OC	nt	17
CCc1ccccc1NC(=O)N1Cc2ccccc2-n2cccc2C12CCN(C(C)=O)CC2	8	nt
CC12CCC3C(CC=C4CC(O)CCC43C)C1C/C(=C\c1ccc(C(F)(F)F)cc1)C2=O (configuration not stated)	3	-1.7
CC(C)(C)c1ccc(OCCOc2ccccc2C=C2C(=O)NC(=O)NC2=O)cc1	nt	23
Cc1ccc2occ(CN3CC=C(c4ccc(F)cc4)CC3)c(=O)c2c1	6	-1.8
COc1ccc(Cc2nc3ccccc3n2Cc2ccccc2)cc1	4	0.0
O=c1c2ccccc2nc(CN2CCCCC2)n1-c1ccccc1	-5	1.5
Cc1cc(OC(=O)N(C)C)nc(SCc2c(F)cccc2Cl)n1	4	nt
CSc1ncccc1C1=N/C(=C\c2ccc(C)cc2)C(=O)O1	nt	0.6
CN1CCN(C(=O)COc2cccc3ccccc23)CC1	-5	0.1
COc1cccc(CNCCc2ccccc2)c1OC	12	-2.0
CC12CCC3C4CCCC=C4CCC3C1CCC2=O (configuration not stated)	nt	-2.1
Cc1ccc(N2Cc3ccccc3C2=N)cc1Cl	-7	-0.8
O=C1CC(=O)N(Cc2ccc(F)cc2)C(=O)N1	12	-0.6
COc1ccc(C(=O)C(C)(C)NO)cc1	19	nt
Clc1ccc(-c2ccc(Cl)cc2)cc1	nt	-3.6
CNC(C)[C@H](O)c1ccccc1 (some centres not stated)	nt	3.4

More results.
SMILES	Sa helicase inh	MgrA DNA FP
Cc1c(C#N)c2nc3ccccc3n2c(=O)/c1=C\Nc1ccc(N2CCOCC2)c(Cl)c1	-25	22
CNC(=O)Oc1noc2ccc(Cl)cc12	nt	-0.3
c1ccc2cc(CNCCc3ccc4c(c3)OCO4)ccc2c1	14	-5.9
CCC(=O)c1ccc(OC(=O)N(C)c2ccccc2)cc1	-20	0.9
CCOC(=O)C1CCN(Cc2ccccc2)CC1	4	-5.7
Cc1[nH]c2ccccc2c1C1=CCNCC1	-5	-0.5
C=CCC(O)(CC=C)C(N)Cc1ccccc1 (configuration not stated)	9	-2.1
CN1C2CCC1CC(OC1c3ccccc3CCc3ccccc31)C2 (configuration not stated)	nt	-0.7
C=Cn1ccnc1P(=S)(c1nccn1C=C)C1CCCCC1	-1	nt
O=C(CNC(=S)N1CC2CC(C1)c1cccc(=O)n1C2)NCc1ccccc1 (configuration not stated)	-2	nt
CCNc1nc2[nH]c(=O)c3c(c2s1)OC(N)=C(C#N)C3c1cccs1 (configuration not stated)	0	1.2
O=C(Cn1c2ccccc2c2cn[nH]c(=O)c21)N1CCC2(CC1)OCCO2	-11	nt
COc1cccc(C(c2c(O)[nH]c(=S)[nH]c2=O)N2CCOCC2)c1OC (configuration not stated)	5	5.3
Cn1cc(CC(=O)N2CCN(C3CCCCC3)CC2)c2ccccc21	18	nt
CN1C2CCC1CC(OC(=O)CCN1CCCC1)C2 (configuration not stated)	nt	-0.9
CN1CCN(Cc2ccc[nH]2)CC1	1	0.0
N#Cc1ccc(NC(=O)CON2C(=O)CCC2=O)cc1Cl	1	nt
CN(C)C(=O)Oc1ccc2ccc(OC(=O)N(C)C)cc2c1	7	nt
O=C1NC(=O)C(C(CC(=O)c2ccccc2)c2ccccc2)C(=O)N1 (configuration not stated)	4	-2.9
COc1cc2c(cc1OC)C(C)NCC2 (configuration not stated)	nt	-3.9

Compound profiles, from the list above. Order of values: Sa helicase inh	MgrA DNA FP
O=C(Cn1c2ccccc2c2cn[nH]c(=O)c21)N1CCC2(CC1)OCCO2 is entered as -11	nt
O=C1NC(=O)C(C(CC(=O)c2ccccc2)c2ccccc2)C(=O)N1 (configuration not stated) is entered as 4	-2.9

(list continues)
SMILES	Sa helicase inh	MgrA DNA FP
CCOP1(=S)Oc2cc3c(cc2C(C(=O)OC)(C(F)(F)F)O1)OCO3 (configuration not stated)	24	nt
CC12CCC3C(CC[C@H]4CC5(CCC34C)OCCO5)C1CCC2O (some centres not stated)	nt	-3.4
O=c1c2ccccc2nc(CO)n1-c1ccc2c(c1)OCO2	5	nt
CCC(=O)Nc1ccc(N2CCN(C)CC2)c(Cl)c1	2	-0.8
c1csc(CN2CCNCC2)c1	4	-2.1
Cc1oc(-c2ccccc2)nc1CN1C(=O)CN=C(c2ccccc2)c2ccccc21	3	nt
O=C(c1ccc(Cl)cc1)C1CN(Cc2ccco2)CCC1(O)c1ccc(Cl)cc1 (configuration not stated)	-10	1.4
COc1ccc(N=C2SCCCN2C)cc1	1	19
CC1CC(C)CN(CC(=O)Nc2cccnc2Cl)C1 (configuration not stated)	15	nt
CCOC(=O)C1=C(N)OC(C)=C(C(=O)OC)C12C(=O)Nc1ccccc12 (configuration not stated)	nt	0.4
COc1cc(COC(=O)N[C@@H](Cc2c[nH]c3ccccc23)C(=O)O)cc(OC)c1	nt	-0.4
C=C1C2CC3(C[C@H]4C5C6(C3CC2=O)C4[N+]([O-])(CC)C[C@]5(C)CC[C@@H]6O)[C@@H]1O (some centres not stated)	20	nt
CN(C)C(=O)Oc1ccc2cc(Br)ccc2c1Br	-18	nt
c1cc2c(cc1CCNC1CCCCCC1)OCO2	4	nt
COc1cccc(N2C(=O)/C(=C/c3ccsc3)C(=O)NC2=S)c1	-12	18
CC1(C)CC(=O)C(C2(O)C(=O)NC(=O)NC2=O)=C(O)C1	8	-2.7
Oc1ccc(C2(c3ccc(O)cc3)CCCCC2)cc1	3	3.2
COC(=O)C1=C(N)OC(c2ccccc2)=C(C(C)=O)C12C(=O)Nc1ccc(Br)cc12 (configuration not stated)	nt	0.6
C=CCN1CCN(C(=O)Cc2cccc(C)c2)CC1	-5	-3.3
O=C(COC(=O)Cc1ccccc1)Nc1ccc(Cl)cn1	-6	nt
COc1cccc(C2C(C#N)=C(N)Oc3c2c(=O)oc2ccccc32)c1 (configuration not stated)	nt	-0.9
C[C@]12CC[C@H]3[C@@H](CC[C@]4(O)C[C@@H](O)CC[C@]34C=O)[C@@]1(O)CC[C@@H]2C1=CC(=O)OC1	nt	-3.3
COc1ccc(C=C2C(=O)NC(=O)NC2=O)cc1OCc1ccc(Cl)cc1Cl	nt	7.4
CCN1C[C@@]2(COC)C3[C@@H](OC)[C@H]4[C@@H]1[C@@]3(C1C[C@@]3(O)[C@H](OC(=O)c5ccccc5)C1[C@]4(OC(C)=O)[C@@H](O)[C@H]3OC)[C@@H](OC)C[C@H]2O (some centres not stated)	nt	3.3
CNC1CCC(C)CC1 (configuration not stated)	-8	nt
CCOC(=O)C1=C(N)c2ccccc2CC12CCCCC2	9	-1.4
C=CCn1c(O)c(C=NCC)c(=O)[nH]c1=S	nt	1.2
N#CC(C#N)=Cc1ccc(N2CCCC2)cc1	-28	0.0
CC1(C)COC(Nc2ccc(Cl)c(Cl)c2)=N1	-13	-2.8
O=C1/C(=C/c2c(F)cccc2Cl)N2CCC1CC2	nt	1.6
C[N+](C)(C)CC(=O)[O-]	nt	1.0
CC(O)CN1CC2CC(C1)c1cccc(=O)n1C2 (configuration not stated)	4	-1.5
Cc1ccccc1NC1=NCCCS1	-1	1.6
Clc1ccccc1CN1CCN(c2cccc3[nH]ccc23)CC1	nt	1.4
CC12C=CC(C)(O1)C1C(=O)N(c3ccc(Cl)c(C(F)(F)F)c3)C(=O)C12 (configuration not stated)	nt	3.6
Cc1nn(Cc2ccccc2)c(Cl)c1C(=O)OCC(=O)N(C)C1CCS(=O)(=O)C1 (configuration not stated)	-9	nt
O=C(c1ccccc1)N1CCC2(CC1)OCCO2	nt	-1.1
c1cncc(C2=NCCC2)c1	nt	4.7
CC12CC[C@@H]3C(=O)CCC(O)CC(=O)CC[C@H]3C1(O)CCC2C1=CC(=O)OC1 (some centres not stated)	-30	nt
CC(C)CCCn1c(O)c(/C=C2\C=CC=N2)c(=O)[nH]c1=O	2	0.3
S=C(S)N1CCCCC1	nt	7.1
CN(C)C(=O)Oc1ccc(Br)cc1C(=O)Nc1ccc(F)cc1	nt	-1.9
CCOP(=S)(Nc1cccc(F)c1)OCC	4	-10
CC1(C)NN1CCCN1NC1(C)C (configuration not stated)	9	-0.9
C=CCN1C(=O)/C(=C\c2ccc(N3CCOCC3)cc2C)C(=O)NC1=S	8	1.2
NP1(=O)C=C(c2ccccc2)OC(c2ccccc2)=C1	-14	nt
